Assay outcomes deposited in PubChem BioAssay by several laboratories.
Hsc70 – small molecules displacing fluorescent ligand from Hsc70 – biochemical, fluorescence polarization, primary screen (AID 568); 83,000 tested, under 10 active; displacement, % at 20 µM, or IC50 in µM where a hit was titrated; Hsc70 fluorescence polarization, probe displacement; higher % means a stronger effect; strong numbers were not always called active;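 active = displacement above 50% without optical interference and an IC50 on retest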;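 note: ATPase domain with a fluorescein-tagged ATP probe; 0% = vehicle and 100% = excess ADP; read after one hour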
WNV protease inh – inhibitors of West Nile virus NS2B-NS3 protease; WNV NS2B-NS3 protease, fluorogenic substrate Ex360/Em465; active compounds read low; z-score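 (tested at a level between 10 and 100 µM)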; 65,000 compounds, 0.18% hits; AID 577;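 active = z-score at -3 or under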;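 note: score is relative to mean and spread of the compound wells of a plate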
Target sequence (P06935 1371-1501 limits assumed): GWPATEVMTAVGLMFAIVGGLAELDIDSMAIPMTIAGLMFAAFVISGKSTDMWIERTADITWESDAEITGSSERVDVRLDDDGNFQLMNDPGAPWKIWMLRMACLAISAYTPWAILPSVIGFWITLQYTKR
Target sequence (P06935 1502-1679 limits assumed): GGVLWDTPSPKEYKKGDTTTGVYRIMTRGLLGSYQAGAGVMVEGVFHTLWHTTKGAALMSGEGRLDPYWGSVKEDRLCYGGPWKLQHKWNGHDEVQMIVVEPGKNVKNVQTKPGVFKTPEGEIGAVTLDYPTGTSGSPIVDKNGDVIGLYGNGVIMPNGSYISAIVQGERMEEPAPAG
MT1-MMP reporter – MT1-MMP gene expression reporter suppression – cell-based, luciferase reporter, luminescence (AID 618). MT1-MMP promoter luciferase reporter cells, luminescence. calls from a first round at 10 µM; hits with a dose series show EC50 in µM. 87,000 compounds, 0.62% hits;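 active = over half of the reporter light lost at 10 µM or EC50 under 50 µM; inactive = the rest and hits that failed the dose series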;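 note: actives suppress MT1-MMP promoter-driven transcription so potencies describe inhibitors; HT1080 fibrosarcoma cells; overnight exposure; toxic or luciferase-blocking compounds were not removed from the actives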
Starred values were filed as active, the others as inactive; i = inactive; nt = no result given. The list is partial; rates above refer to the full screens.

molecule,Hsc70,WNV protease inh,MT1-MMP reporter
Fc1cccc(Nc2ncnc3c2cnn3-c2ccccc2)c1,8.2%,0.98,i
CCC(C)(C)NC(=O)C(c1ccccc1)N(C(=O)c1csnn1)C1CC1 (stereo unspecified),-1.1%,nt,i
CCn1cc(C(=O)NCC2CCCO2)c(=O)c2cc(S(=O)(=O)N3CCCCC3)ccc21 (stereo unspecified),10.3%,0.02,i
CCc1cc2c3c(c(=O)oc2cc1O)CCCC3,-0.1%,3.75,i
COc1ccc(-c2ccc(-c3noc(-c4ccncc4)n3)c(OC)n2)cc1,-159.9%,0.56,i
CC(=O)c1noc(C)c1C(=O)Nc1nccs1,1.6%,nt,i
COc1ccccc1Nc1nc2c(s1)CCC2,2.2%,-0.06,i
Cc1cc(=O)n(CCCO)c(O)c1C#N,1.6%,0.75,i
CC(=O)c1cccc(NC(=O)NC2CC3CCCC(C2)N3CC(C)C)c1 (stereo unspecified),1.7%,nt,i
CCOc1ccc(OCc2ccc(C(=O)Nc3cccc(C)n3)o2)cc1,-2.1%,-0.18,i
Cc1cc(C(=O)CSc2nnc(-c3ccc(OC(F)F)cc3)o2)c(C)n1Cc1cccs1,-8.5%,-0.82,i
O=C(c1ccccc1Sc1cccc2ccccc12)N1CCOCC1,-1.2%,nt,i
CCCCOc1ccc(C(=O)N2CCCCCC2)cc1,5.4%,0.21,i
O=C(Nc1ccccc1-c1ccccc1)NC1CCN(CC(=O)N2CCOCC2)CC1,-2.6%,-0.95,i
CSc1ccc(N2C(=O)NC3(CCCCC3)C2=O)cc1,-0.7%,2.48,i
O=C1CCCC(O)=C1C1NCCc2ccccc21 (stereo unspecified),5.0%,nt,i
Cc1ccc(/C=N/NC(=O)C2=NNC(c3ccccc3)(c3ccccc3)C2)c(O)c1,-2.4%,nt,i
COc1ccc(C2C(C#N)=C(N)OC3=C2C(=O)CCC3)c(OC)c1OC (stereo unspecified),-2.9%,-0.47,i
O=C(CC1COc2ccccc2O1)NCCc1ccccc1 (stereo unspecified),-0.1%,nt,i
Nc1nc2ccccc2n1CCN1CCCC1,-0.6%,0.48,i
COc1ccccc1-c1nnn(CC#N)n1,3.1%,0.49,i
O=C(O)C1C2C=CC(CC2)C1C(=O)O (stereo unspecified),2.4%,nt,i
COc1ccccc1NC(=O)CSc1nnnn1-c1ccc2c(c1)OCO2,5.7%,-0.95,i
CCC(=O)Nc1c(-c2cccs2)c(=O)c2ccccc2n1C,4.1%,0.82,i
O=C(COC(=O)c1ccco1)Nc1ccccc1,0.7%,0.36,i
CCN(C(=O)Cn1c(=O)n2nc(CCn3nc(C)cc3C)nc2c2ccccc21)c1cccc(C)c1,5.7%,-1.04,i
CN1C(=O)C(CC(=O)Nc2ccc3c(c2)Cc2ccccc2-3)N(C)C1=O (stereo unspecified),-4.1%,-0.41,i
CC1CC(C)CN(CCCNC(=O)Cc2c(C(=O)O)n(C)c3ccccc23)C1 (stereo unspecified),-1.4%,nt,i
CCOc1ccc2[nH]c(=O)c(CN(Cc3nnnn3Cc3ccccc3)CC3CCCO3)cc2c1 (stereo unspecified),-7.0%,0.07,i
O=C(O)CCCNS(=O)(=O)c1cccs1,4.1%,-0.36,i
COc1ccc(CNC(=O)CCn2c(=O)oc3ccccc32)cc1,-8.4%,0.3,i
CCOP(=O)(c1ccc(N(C)C)cc1)C(O)c1ccccc1OC (stereo unspecified),1.2%,-0.33,i
Cc1cc(Cl)c(S(=O)(=O)N2CCSCC2)cc1OCC(=O)NC1CCCCC1,1.1%,nt,i
N#CC1=C(N)OC2=C(C(=O)CCC2)C12CCC1(CC2)OCCO1,-4.7%,1.21,i
CCOC(=O)N1CCN(S(=O)(=O)c2ccc(C(=O)Nc3sc4c(c3C#N)CCC4)cc2)CC1,-1.6%,0.24,i
COc1ccccc1N1CC(C(=O)OCC(=O)c2ccc(F)cc2)CC1=O (stereo unspecified),-6.9%,-1.47,i

In the list so far, two have a furan ring, fused or not.
molecule,Hsc70,WNV protease inh,MT1-MMP reporter
CCOc1ccc(OCc2ccc(C(=O)Nc3cccc(C)n3)o2)cc1,-2.1%,-0.18,i
O=C(COC(=O)c1ccco1)Nc1ccccc1,0.7%,0.36,i

(list continues)
molecule,Hsc70,WNV protease inh,MT1-MMP reporter
CCC(c1nnc(SCC(=O)NCC2CCCO2)n1Cc1ccccc1)N(C)C (stereo unspecified),0.1%,0.11,i
COc1ccc2nc(C)cc(C(=O)O)c2c1,1.2%,1.38,i
CC(C)n1c(N2CCN(C(=O)Nc3ccccc3)CC2)nc2ccccc21,-1.1%,nt,i
CC1=CC(c2ccc(Cl)cc2)n2nc(NC(=O)c3ccccc3)nc2N1 (stereo unspecified),0.5%,nt,i
Cc1nnc(SCC(=O)NCc2ccco2)[nH]c1=O,-1.6%,0.92,i
O=C(Cn1nnc(-c2ccccc2F)n1)Nc1ccc2c(c1)OCO2,2.4%,0.12,i
CC(n1cnnn1)C12CC3CC(CC(C3)C1)C2 (stereo unspecified),5.7%,-0.02,i
Cc1cccc(/N=C/c2c(O)c3ccccc3oc2=O)n1,4.6%,-1.52,i
c1ccc(COc2ccc(OCCn3cncn3)cc2)cc1,4.0%,0.05,i
CCOC(=O)N1CCN(c2ccc(C(=O)CC)cc2F)CC1,96.9%,1.68,i
CC(C)NC(=O)CCNS(=O)(=O)c1ccc(Br)cc1,-3.9%,0.13,i
CCOC(=O)N1CCN(C(=O)Nc2ccc3nc(C)sc3c2)CC1,0.8%,-1.06,i
CNC(=O)CSCc1c(F)cccc1Cl,0.2%,nt,i
CCN(CC)CCCN1C(=O)C(=O)/C(=C(/O)c2ccc(OC)c(Cl)c2)C1c1ccco1 (stereo unspecified),-0.7%,-1.92,i
CCN(C(=O)CCc1nc(-c2ccccc2F)no1)c1cc(OC)ccc1OC,0.8%,1.15,i
CCOC(=O)N1CCC(NC(=O)C(NC(=O)C2CCCCC2)C(C)C)CC1 (stereo unspecified),1.5%,-0.66,i
CCOC(=O)c1ccc(NC(=O)CSc2nc3c(c(=O)n2C)SC(C)C3)cc1 (stereo unspecified),3.5%,0.87,i
CC(C)NC(=O)c1ccccc1-c1nc(-c2ccccc2Cl)no1,1.0%,-0.66,i
COc1ccc(OC)c2sc(N3CCCCC3)nc12,-4.6%,1.7,i
CCC(=O)Nc1nc2ccccc2n1CCN(C)C,2.8%,-0.59,i
O=C(CNS(=O)(=O)c1ccc(Br)s1)NCC1COc2ccccc2O1 (stereo unspecified),-24.4%,-1.85,i
N#CCCn1nc(-c2ccccc2)cc1-n1c(C(F)(F)F)nc2ccccc21,2.7%,-0.68,i
FC(F)(F)c1nc2nncn2c2c1CCCCC2,-0.4%,1.53,i
COc1cccc(C2=NOC(C(=O)NC(C)C)C2)c1 (stereo unspecified),0.9%,0.34,i
CC(=O)N(CN1C(=O)c2ccccc2C1=O)c1ccccc1,-6.0%,-0.57,i
O=C(O)c1cscn1,4.4%,-1.09,i
COc1cccc2sc(Nc3nc(C)c(C(C)=O)s3)nc12,-3.2%,3.21,i
CCOC(=O)c1ccccc1N/C=C1\CCCCC1=O,4.4%,nt,i
Cc1nc2ccccc2c2oc(C(=O)Nc3ccc4c(c3)OCCO4)cc12,-0.3%,-0.87,i
CC(=O)C1=C(O)C(=O)N(CCN(C)C)C1c1ccc(Cl)cc1 (stereo unspecified),6.1%,0.95,i
CC1CCCN(S(=O)(=O)c2ccc3c(c2)CCN3C(=O)C2CCC2)C1 (stereo unspecified),-1.0%,-1.69,i
COC(=O)NCC(c1cccnc1)N1CCN(c2ccccc2)CC1 (stereo unspecified),2.4%,-0.39,i
Cc1ccc(NS(=O)(=O)c2cc(C(=O)N3CCOCC3)ccc2C)cc1,2.0%,-0.32,i
CCCNC(=O)C(=O)Nc1ccc(N(C)C)cc1,2.6%,nt,i
CCOc1ccccc1NC(=O)N1CCCC1C(=O)Nc1ccc(-n2cnnn2)c(C)c1 (stereo unspecified),-0.8%,-0.04,i
Cc1cccc(-n2c(Cn3nc(C)c([N+](=O)[O-])c3C)n[nH]c2=S)c1,2.2%,nt,i

Quoted from the listing:
CCOC(=O)c1ccccc1N/C=C1\CCCCC1=O | Hsc70: 4.4%
COC(=O)NCC(c1cccnc1)N1CCN(c2ccccc2)CC1 (stereo unspecified) | Hsc70: 2.4%
Cc1cccc(-n2c(Cn3nc(C)c([N+](=O)[O-])c3C)n[nH]c2=S)c1 | Hsc70: 2.2%
CCCNC(=O)C(=O)Nc1ccc(N(C)C)cc1 | Hsc70: 2.6%
CC(=O)N(CN1C(=O)c2ccccc2C1=O)c1ccccc1 | Hsc70: -6.0%
Cc1ccc(NS(=O)(=O)c2cc(C(=O)N3CCOCC3)ccc2C)cc1 | WNV protease inh: -0.32

The list goes on.
compound	Hsc70	WNV protease inh	MT1-MMP reporter
C=CCn1c(Cc2cccs2)nnc1SC/C=C/c1ccccc1	3.6%	nt	i
Cc1cc(C)n(S(=O)(=O)c2ccc(C)c(C)c2C)n1	8.1%	0.35	i
CC(C)C(=O)N1CCN(C2=NS(=O)(=O)c3ccccc32)CC1	2.0%	0.43	i
CCOc1ccc(NC(=O)CN2CCC(NC(=O)C3CCCCC3)CC2)cc1	-5.1%	-0.08	i
C1=CC2c3ccccc3NC(c3ccncc3)C2C1 (stereo unspecified)	0.3%	-0.39	i
Cc1ccc(OC(=O)CCC(=O)Nc2ccc(S(=O)(=O)Nc3cc(C)on3)cc2)cc1	-3.2%	-0.04	i
O=C(CN1C(=O)CCC1=O)Nc1ccc2c3c(cccc13)CC2	-5.3%	0.77	i
CCCCn1c(NC(=O)c2ccccc2)nc2ccccc21	0.2%	0.26	i
O=C1CSC(=S)N1Cc1cccnc1	-16.5%	-0.15	i
CC(C)=C1C2CCC1C(C(=O)NCc1ccccc1)C2C(=O)O (stereo unspecified)	-5.7%	-0.28	i
COc1ccc(-c2nc(C#N)c(NCCCN3CCOCC3)o2)cc1	-2.0%	0.62	i
COCCn1c(-c2ccc(Cl)cc2)cnc1SCC(=O)NCc1cccs1	-7.9%	0.77	i
c1ccc(-c2nc(-n3ccnc3)nc(-n3ccnc3)n2)cc1	5.3%	-0.35	i
COc1cccc(-c2nn(C)c3sc(C(=O)N4CCN(c5ccccn5)CC4)cc23)c1	-0.3%	-0.00241	i
Cc1ccsc1CNn1cnnc1SCc1ccc(Cl)cc1	2.2%	nt	i
CCOc1ccc(Nc2nc(Cc3nnc(SCC(=O)NCC4CCCO4)n3C)cs2)cc1 (stereo unspecified)	5.0%	0.33	i
CCCC(=O)Nc1nc2ccc3nc(C)sc3c2s1	-4.4%	0.34	i
CCC(CC)NC(=O)c1ccccc1Oc1ccccc1	6.4%	nt	i
COc1ccc(OC)c(NC(=O)CNC(=O)Cn2cnc3ccccc3c2=O)c1	-2.8%	0.94	i
C=CCNC(=O)CCCC(=O)NCC=C	-10.8%	-0.3	i
COc1ccc(/C(O)=C2/C(=O)C(=O)N(CC3CCCO3)C2c2ccc(OC)c(OC)c2)cc1 (stereo unspecified)	3.9%	nt	i
Cc1c(NC(=O)CSc2nnnn2-c2ccc(O)cc2)c(=O)n(-c2ccccc2)n1C	5.0%	nt	i
COc1ccc(N2C(=O)CC(Sc3ncccc3C(=O)O)C2=O)cc1 (stereo unspecified)	1.7%	nt	i
O=C(C1CCCCC1)N1CCC(c2nc3ccccc3[nH]2)CC1	9.9%	1.19	i
Cc1ccc(S(=O)(=O)Nc2ccc3c(c2)nc(CN2CCCC2)n3C)cc1	-3.1%	nt	i
COc1cc(C2CC(=O)c3cnc(NC(C)=O)nc3C2)cc(OC)c1OC (stereo unspecified)	9.9%	nt	i
Cc1nn(C)cc1CNC(=O)C1C2CCC(O2)C1C(=O)O (stereo unspecified)	-6.2%	-1.2	i
O=C(NCc1ccccc1)N1CCn2c(nc3ccccc32)C1	-3.2%	0.23	i
CCCC(=O)Nc1cc(=O)n(C)c(=O)n1C	3.3%	-0.83	i
O=C(NCCO)C(F)(F)C(F)(F)C(F)(F)OC(F)(C(=O)NCCO)C(F)(F)F (stereo unspecified)	6.1%	nt	i
O=C(c1cccs1)N1CCn2c1nc1ccccc12	-4.3%	-0.62	i
Cc1ccc(-n2c(C)nc3oc4ccccc4c(=O)c3c2=O)cc1	-1.0%	-0.34	i
COc1ccc(C2C(C(=O)N3CCOCC3)CCC(=O)N2c2ccc(OC)cc2)cc1 (stereo unspecified)	1.2%	-1.11	i
CCOC(=O)N1CCN(C(=O)c2ccc3nc(C)sc3c2)CC1	-0.4%	0.74	i
CCCNC(=O)Cn1cnc2sc(C(=O)Nc3cc(OC)c(OC)c(OC)c3)c(C)c2c1=O	1.1%	nt	i
O=C(CN1c2cccc3cccc(c23)S1(=O)=O)N1CCOCC1	-1.9%	1.5	i
CCSc1nc2c([nH]c3ccccc32)c(=O)n1C	-5.6%	0.56	i
